Assay outcomes (PubChem)
SARS PLpro yeast: SARS-CoV PLP inhibition in yeast; AID 485353; 0.19% of 330,000 active; S. cerevisiae expressing SARS-CoV PLpro, growth rescue; control for the full effect not named in the record; Potency, µM (titrated, usually from 32.9 µM), for the others: at the top dose activity, positive = growth rescue; active means well fitted rising curve with a large enough effect; inconclusive means small, poorly fitted or top-dose-only effect; inactive means no such curve, though single readings can be large or run the other way; further: 0% is about no effect; nearly all actives have a fitted effect of over 55% in size; growth read by luminescence after 48 h
StopGo reporter: lowers the luciferase signal of an FMDV 2A StopGo reporter | AID 1159524 | human cells with a luciferase reporter of 2A StopGo recoding; control for the full effect not named in the record | Potency, µM (doses to about 57.9 µM), for inactives: at the top dose signal change, negative = less light | 1.2% of 410,000 active; active = well fitted falling curve with a large enough effect; inconclusive = small, poorly fitted or top-dose-only effect; inactive = no such curve, though single readings can be large or run the other way; tested in HEK293T cells; further: on the % scale 0 is the no-effect control and ±100 the full control effect; nearly all actives have a fitted effect of over 45% in size; luciferase light after 4 h
RE007 growth inh: less growth of the S. pombe RE007 Vpr strain; S. pombe RE007 Vpr strain, BacTiter-Glo ATP luminescence, 24 h; control for the full effect not named in the record; 0.21% of 360,000 active; AID 651644; Potency, µM (series often up to 92.2 µM), for inactives: at the highest dose activity change, negative = less growth; active = well fitted falling curve with a large enough effect; inconclusive = small, poorly fitted or top-dose-only effect; inactive = no such curve, though single readings can be large or run the other way;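 further: on the % scale 0 is the no-effect control and ±100 the full control effect; nearly all actives have a fitted effect of over 50% in size; the assay follows cell death caused by Vpr and the record does not say whether a fall means rescue or toxicity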
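Fission yeast RE007 carrying one integrated HIV-1 vpr copy, seeded at OD 0.01 in PMG+AL medium with 23 nL pinned compound. Grown 24 h at 30 degrees; viability read by BacTiter-Glo luminescence after 5 min.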
Marburg entry inh: inhibitors of Marburg virus binding or cell entry. Marburg virus pseudotyped entry inhibition, cell reporter; control for the full effect not named in the record; about a third of the inactives were read at about 46 µM. Potency, µM (highest dose often 37.8 µM), inactives show at the top dose activity change, negative = inhibition, actives largely listed as inhibitors. 1.8% of 300,000 active. AID 540276; active = well fitted inhibition curve with a large enough effect; inconclusive = small, poorly fitted or top-dose-only effect, or effect the other way; inactive = flat fitted curve, though single readings scatter; tested in HEK293 cells; about a fifth of its hits are not listed in these tables; further: on the % scale 0 is the no-effect control and ±100 the full control effect; luciferase read-out
Cruzain inh Det: blocks cruzain activity in presence of Triton detergent | purified cruzain, Z-FR-AMC fluorescence, 0.01% Triton | Potency, µM, inactives show max response, negative = inhibition, hits mostly inhibitors | 0.43% of 200,000 active | AID 1478;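 further: plate controls were neutral wells for no effect and buffer without enzyme for full effect; nearly all actives have a fitted effect of over 40% in size; top concentration of the series not given in the record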
Target sequence (P25779 123-467 limits assumed): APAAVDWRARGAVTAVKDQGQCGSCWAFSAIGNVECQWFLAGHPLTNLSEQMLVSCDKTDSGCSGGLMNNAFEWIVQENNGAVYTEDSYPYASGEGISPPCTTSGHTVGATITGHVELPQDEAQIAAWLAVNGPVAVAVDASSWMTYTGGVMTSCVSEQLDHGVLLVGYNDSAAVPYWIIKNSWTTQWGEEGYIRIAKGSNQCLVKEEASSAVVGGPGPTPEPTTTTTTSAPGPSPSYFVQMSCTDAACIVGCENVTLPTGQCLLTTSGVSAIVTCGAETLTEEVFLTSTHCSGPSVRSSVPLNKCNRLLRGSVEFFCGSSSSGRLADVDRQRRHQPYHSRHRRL
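Purified cruzain (1.5 nM final) was preincubated with compounds for 15 min at room temperature in 100 mM sodium acetate pH 5.5, 5 mM DTT, 0.01% Triton X-100. Reaction started with 2 uM Z-FR-AMC; AMC fluorescence change over 60 s gave activity.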
Cruzain inh noDet: blocks cruzain activity in detergent-free assay; 2.3% of 200,000 active; purified cruzain, Z-FR-AMC fluorescence, no detergent; Potency, µM, inactives show max response, negative = inhibition, usual class: inhibitors; P25779;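 further: plate controls were enzyme without inhibitor for no effect and buffer without enzyme for full effect; nearly all actives have a fitted effect of over 40% in size; top concentration of the series not given in the record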
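Detergent-free condition (0.00005% Triton X-100) in acetate buffer pH 5.5 with DTT. 1.5 nM enzyme and compound were pre-mixed 15 min, then 2 uM Z-FR-AMC substrate added; reaction progress from fluorescence change between first and third reads (60 s).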
NS1 function inh: blocks influenza NS1 protein function; Potency, µM (top dose mostly 46.1 µM), for the others: at the highest dose activity, positive = more growth; 0.4% of 270,000 active; S. cerevisiae slowed by influenza A NS1, growth recovery by OD600; AID 2326; active means well fitted rising curve with a large enough effect; inconclusive means small, poorly fitted or top-dose-only effect; inactive means no such curve, though single readings can be large or run the other way; further: nearly all actives have a fitted effect of over 50% in size
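Compounds were scored for reversing the slow growth caused by influenza A NS1 in S. cerevisiae, measured by optical density at 600 nm. Assay medium contained 2% galactose at pH 6.0; NS1-free yeast of the same strain were the positive control.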
Lassa entry inh: Lassa virus entry inhibition | Lassa virus pseudotype entry inhibition, cell reporter; control for the full effect not named in the record | Potency, µM (doses to about 37.9 µM), without a hit: top-dose activity change, negative = inhibition, most hits filed as inhibitors | 1.2% of 300,000 active; active means well fitted inhibition curve with a large enough effect; inconclusive means small, poorly fitted or top-dose-only effect, or effect the other way; inactive means flat fitted curve, though single readings scatter; tested in HEK293 cells; further: on the % scale 0 is the no-effect control and ±100 the full control effect; nearly all actives have a fitted effect of over 50% in size; luciferase read-out
* = called active by the depositor; u = inconclusive; x = not tested or not shown; & = joins results of further samples; ! = not confirmed by another sample; [ ] = remark or other dose. Unless noted, the call rests on the fitted dose curve; in most records, active means well fitted curve in the direction sought with a large enough effect; inconclusive means small, poorly fitted or top-dose-only effect, or another doubt; inactive means no such curve, though single readings can be large; an effect the other way counts as inactive or inconclusive. Potency means the concentration at half of the fitted maximal effect.

SMILES	SARS PLpro yeast	StopGo reporter	RE007 growth inh	Marburg entry inh	Cruzain inh Det	Cruzain inh noDet	NS1 function inh	Lassa entry inh
CCCS(=O)(=O)c1c(S(=O)(=O)CCC)c2c(C)cccn2c1C(N)=O	3%	9%	3%	u	-2.4%	4%	6%	-12%
O=C(NCc1ccc2c(c1)OCO2)c1cc(-c2ccc(Cl)cc2Cl)on1	2%	0%	5%	3%	0.5%	-23%	8%	-7%
CCc1ccccc1NC(=O)c1ccc(Cn2nc(N3CCN(c4ccccc4)CC3)ccc2=O)o1	x	u	x	x	-6.8%	u	x	-9%[46.1 µM]
Cc1ccc(CN2CC34C=CC(O3)C(C(=O)NCc3ccc5c(c3)OCO5)C4C2=O)cc1 (stereo unspecified)	-1%	9%	9%	5%&5%[46.1 µM]	3.2%	5%	2%	0%
CCn1cc(C(=O)N[C@H](C(=O)NCCCOC)C(C)C)c(=O)c2cc3c(cc21)OCO3	2%	3%	0%	x	x	x	3%	x
Cc1nn(CCC#N)c2nc(-c3ccccc3)cc(C(F)(F)F)c12	1%	-17%	7%	-3%	-7.9%	u	9%	-25%
CCOc1ccc(CCNC(=O)c2[nH]c(C)c(C(C)=O)c2CC)cc1OCC	0%	-6%	-4%	u	x	x	x	-29%[46.1 µM]
Cc1ccc(S(=O)(=O)NC2OC(=O)C(Cl)=C2Cl)cc1 (stereo unspecified)	21%	u	-9%	4%	4.7%	-16%	3%	13%
CSc1nc2n(n1)C(c1ccccn1)C1=C(CC(C)(C)CC1=O)N2 (stereo unspecified)	-7%	27%	3%	8%	-5.3%	-10%	15%	u
Cc1ccc(NC2=C(Cl)C(=O)OC2OC(=O)c2ccco2)c(C)c1 (stereo unspecified)	x	0%	64%	-12%	x	x	x	0%
Cc1cc(NC(=O)CSc2ncn(-c3ccccc3)n2)no1	-2%	-15%	3%	u	2.1%	0%	-11%	15%
COc1ccc(C(=O)NNC(=O)CSc2nnc(-c3ccc(O)cc3)n2C)cc1	-6%	14%	0%	-6%[46.1 µM]	x	x	3%	-8%[46.1 µM]
NS(=O)(=O)c1ccc(CCNC(=S)Nc2ccccc2)cc1	u	-10%	17%	14%	-0.7%	-8%	10%	8%
Cn1c2ccccc2c(=O)c2cc(C#Cc3ccsc3)ccc21	-1%	26%	-2%	x	x	x	24%	x
O=C(O)c1cccc(S(=O)(=O)N2CCC(n3nnc4cc(C(F)(F)F)ccc43)CC2)c1	0%	1%	9%	1%[46.1 µM]	x	x	3%	24%[46.1 µM]
CCOC(=O)C1=C(C)NC2=C(C(=O)CC(C)(C)C2)C1c1ccc(N(C)C)cc1 (stereo unspecified)	1%	39%[activator]	5%	-2%	2.5%	0%	-15%	-9%
CSc1nnc([C@@H](N)Cc2c[nH]c3ccccc23)o1	1%	-1%	1%	3%	x	x	x	4%
COc1ccc(N(C)C(=O)c2ccc3snnc3c2)cc1	9%	-9%	-2%	3%	-0.7%	1%	2%	-9%
CN(c1ccccc1)S(=O)(=O)c1cccc(C(=O)Nc2ccc3c(c2)CCC3)c1	-27%	-16%	2%	16%	-5.6%	u	24%	16µM*
CC(=O)N(c1cccc(C(F)(F)F)c1)c1nc(/C=C/C(=O)O)cs1	-4%	-1%	8%	x	x	x	-1%	x
C/C(=N\OC(=O)c1c(-c2c(F)cccc2Cl)noc1C)c1nccs1	0%	-2%	-5%	-23%[46.1 µM]	x	x	3%	-7%[46.1 µM]
CSC1=NCCN1C(=O)c1ccc2ccccc2c1	0%	27%	15%	x	x	x	-6%	x
COc1ccc(/C=N/NC(=O)CNC(=O)c2cccs2)cc1	-10%	30%	2%	9%	0.7%	-3%	-4%	5%
Cc1ccc(-c2cc(C(=O)NC(C)c3ccccc3)c3ccccc3n2)cc1C (stereo unspecified)	x	6%	x	x	1.0%	1%	x	5%[46.1 µM]
CCCCN(CCCC)S(=O)(=O)c1ccc(NC(=O)CN2CCOCC2)cc1	10%	-2%	10%	-19%	-7.7%	u	-38%	-18%
O=C(NC1CCCCCCC1)c1ccc2c(c1)OCO2	-7%	-21%	-15%	-19%	-1.8%	-11%	-31%	-20%
N#CCCn1c(SCC(=O)Nc2ccc(N3CCOCC3)cc2)nc2ccccc21	6%	8%	-9%	8%	-8.0%	-8%	9%	15%
Cc1c(C(=O)c2ccc(F)cc2F)c2ccccn2c1CCC#N	-5%	-7%	-6%	3%[46.1 µM]	x	x	4%	5%
N#Cc1ccc(S(=O)(=O)NCC(=O)OCC(=O)NCCc2ccccc2)cc1	-1%	-3%	5%	x	x	x	-4%	x
Cn1c(=O)c2c(nc(SCCNS(=O)(=O)c3ccccc3)n2C)n(C)c1=O	-2%	0%	-15%	15%	1.5%	-8%	-10%	8%
Cc1cc(N2C(=O)c3ccc(C(=O)NCc4ccccc4)cc3C2=O)no1	5%	0%	0%	10%	x	x	x	2%
Cc1ccnc(NC(=O)CCC(=O)N(CC(=O)NCc2ccc(F)cc2)CC2CCCO2)c1 (stereo unspecified)	3%	14%	-6%	u	x	x	-6%	11%[46.1 µM]
CNC(=O)CCSSCCC(=O)NC	2%	-3%	7%	2%[46.1 µM]	x	x	x	15%
CC(=O)c1cccc(NC(=O)c2cc(Cl)sc2Cl)c1	-15%	19%	u	18%	-2.2%	8%	0%	26%
O=C1N(CC(=O)N2CCc3ccccc32)CCN1Cc1ccc(Cl)cc1	4%	-21%	2%	u	-0.5%	-2%	-9%	5%
CC(C)Cn1c(SCC(=O)NCCCN2CCCC2=O)nc2ccccc21	2%	-4%	1%	-6%	x	x	x	2%
Cc1ccc(OCCC(=O)OCC(=O)Nc2cc(C)cc(C)c2)cc1	-3%	0%	-11%	x	x	x	9%	x
O=C(/C=C/c1ccco1)Nc1cccnc1Cl	-3%	47%[activator]	-2%	x	x	x	1%	x
CC(=O)N1CCN(C(=O)CCc2nc3sc4c(c3c(=O)[nH]2)CCCC4)CC1	6%	-11%	0%	-9%	-2.6%	1%	-7%	6%
CCn1cc(C(=O)N[C@@H](C)C(=O)OC)c(=O)c2cc3c(cc21)OCO3	1%	-13%	-12%	x	x	x	1%	x
COc1cc2c(cc1NC(=O)CSc1nnc(Cc3cccs3)n1Cc1ccco1)oc1ccccc12	19%[6.58 µM]	u	-7%	u	1.8%	u	15%	-9%
Cc1c(Cl)cccc1NC(=O)CSCC(N)=O	-2%	x	9%	-1%	0.6%	-17%	2%	34%
COC(=O)c1c(C)[nH]c(C(=O)OCc2csc(CC(=O)Nc3ccccc3C)n2)c1C	4%	-24%	-6%	10µM*	x	x	x	-7%
O=C1N=c2ccccc2=C1c1c(O)n(-c2cccc(F)c2)[nH]c1=O	-27%	u	5%	u	-0.2%	10%	12%	4%
Cc1nn(Cc2ccc(C(=O)N3c4ccc(F)cc4CCC3C)o2)c(C)c1Br (stereo unspecified)	-7%	u	7%	u	-12%	u	-132%	-4%
CCOC(=O)c1ccc(Oc2cn[nH]c2-c2ccc(OCC(=O)NN)cc2O)cc1	-1%	-1%	1%	x	x	x	25%	x
CCS(=O)(=O)c1nc(S(=O)(=O)c2ccc(Cl)cc2)c(N2CCN(CCO)CC2)s1	-6%	-5%	-2%	x	x	x	1%	x
C[C@@H]1CN(C(=O)c2cc(COc3cccc(C(F)(F)F)c3)on2)C[C@H](C)O1	2%	16%	-9%	-7%	x	x	-29%	17%
Cn1c(=O)c2[nH]c(N3CCN(c4cccc(O)c4)CC3)nc2n(C)c1=O	-3%	-3%	-8%	5%[46.1 µM]	x	x	x	2%
O=C(COC(=O)c1ccccc1OC(F)F)Nc1ccc2[nH]c(=O)[nH]c2c1	1%	2%	1%	6%	x	x	x	14%
CCOC(=O)c1ccc(NC(=O)Cn2nnc(-c3ccccc3F)n2)cc1	9%	0%	-9%	u	-3.5%	-2%	11%	8%
O=C(Cn1c(NCCO)nc2ccccc21)c1ccc(F)cc1	-2%	15%	-13%	x	x	x	-5%	x
CN(Cc1ccco1)C(=O)Cn1c(=O)oc2cc(S(=O)(=O)NCc3ccccc3)ccc21	4%	14%	-1%	-1%&-1%	-0.5%	-5%	7%	-2%
COc1ccc(-c2noc(C3CCCN(C(=O)Nc4ccccc4)C3)n2)cc1 (stereo unspecified)	-1%	0%	-20%	x	x	x	5%	x
CN(CC(=O)Nc1cccc(C(F)(F)F)c1)S(=O)(=O)c1cccs1	x	0%	x	10%[46.1 µM]	-7.4%	-16%	x	22%[46.1 µM]
O=C(CSc1ccc(-c2cccc([N+](=O)[O-])c2)nn1)NCc1ccccc1	-9%	0%	11%	-3%[46.1 µM]	x	x	x	-21%
Cc1ccccc1NC(=O)Nc1ccc2c(c1)CCC2	u	59%[activator]	-4%	x	x	x	0%	x
CCOC(=O)NC(=O)/C(N=Nc1cccc(C(F)(F)F)c1)=C(\C)O	0%	-7%	11%	-10%[46.1 µM]	x	x	-2%	-11%[46.1 µM]
Nc1ccc(N=Nc2ccccc2)c(N)n1	-5%	13%&43%	-4%[18.4 µM]	-7%&-7%&-7%&-7%&-7%&-7%&-7%&-7%&-7%&-7%&-7%	-3.4%&-8.7%&-6.5%&-12%	20µM*!	-11%	u
COc1cc2c(cc1OC)CN(C1CCC(C(C)(C)C)CC1)CC2 (stereo unspecified)	x	-28%	4%	u	x	x	x	-1%[46.1 µM]
Carrying on.
SMILES	SARS PLpro yeast	StopGo reporter	RE007 growth inh	Marburg entry inh	Cruzain inh Det	Cruzain inh noDet	NS1 function inh	Lassa entry inh
Cc1cc(C(=O)N2CCN(c3ncccn3)CC2)sc1-c1ccccc1	x	13%	-3%	-5%	x	x	-9%	-11%[14.3 µM]
CCOC(=O)Cn1c(=O)n(C2CCCCC2)c2nc(-c3ccc(OCC)cc3)nc(C(N)=O)c21	x	-3%	x	x	1.8%	-5%	x	u
Cc1ccc(NC(=O)CC2C(=O)N(Cc3ccccc3)C(=S)N2NC(=O)c2ccccc2)c(C)c1 (stereo unspecified)	19%	-21%	10%	u	-2.4%	15%	14%	0%
COc1cc(NS(=O)(=O)c2ccc(OC)c(C)c2C)c(OC)cc1Cl	-19%	-17%	5%	u	-5.9%	6%	-1%	u

This is a random part of the collection; 4.7% or so of the library scored in one or more.
